Screening data as filed in PubChem.
CDC25B-CDK2 inh: primary biochemical HTRF screen for blockers of M-phase inducer phosphatase 2 binding to CDK2/cyclin A. AID 1259370, 2018. 94,000 tested, 0.72% active. HTRF CDC25B-CDK2/CyclinA binding, anti-His/anti-Flag; stronger effect = higher value. z-score (test concentration not listed);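 further: score is relative to mean and SD of negative controls; strong numbers were not always called active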
TAR Tat displ: TAR RNA-Tat peptide displacers, HIV-1, primary screen, biochemical, FRET, FAM/TAMRA-labeled Tat; HIV-1 TAR RNA, Tat peptide displacement FRET; stronger effect = higher value; z-score (no concentration beside the values); 100,000 tested, 0.6% active; AID 1259389, 2018;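 further: score is relative to mean and SD of negative controls; some compounds called inactive have numbers as strong as hits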
Active calls of the source: *; x = not tested or not shown; & = joins results of further samples.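 How the source made its calls: active means z-score from 3 up in half or more of its runs; inactive means the rest.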

SMILES	CDC25B-CDK2 inh	TAR Tat displ
CCC(C)NS(=O)(=O)c1ccc2c(c1)N(C)CCO2 (configuration not stated)	x	0.37
COc1ccc(C2=NN(C(=O)CSc3nncn3C)C(c3ccc(F)cc3)C2)cc1 (configuration not stated)	-1	x
O=C(NCc1ccc2c(c1)OCO2)c1ccc(N2C(=O)CCS2(=O)=O)cc1	-2.4	1.3
CN(C)CCCNc1ncnc2c1sc1nc(-c3ccco3)c3c(c12)CC(C)(C)OC3	3	-1.1
O=C(Nc1ccc2nc3n(c(=O)c2c1)CCCC3)C1CCCCC1	-2.4	-1.5
Cc1cc(=O)[nH]c(SCC(=O)N2CCN(S(=O)(=O)c3ccccc3)C2)n1	-1.2	0.25
CCCn1c(=O)c2sccc2n2c(CCCC(=O)N3CCN(C(=O)c4ccco4)CC3)nnc12	x	1.1
Cc1occc1-c1nnc(SCC(=O)Nc2ccc(Br)cc2F)o1	2.2	2.6
Cc1ccnc(NC(c2ccncc2)c2ccc3ccc(C)nc3c2O)c1 (configuration not stated)	-0.67	x
Nc1nc(N2CCCC2)nc(Nc2ccccc2)c1[N+](=O)[O-]	x	0.74
Cc1sc2ncnc(NCCc3ccccc3)c2c1C	-1.1	x
CCOC(=O)N1CCN(c2c(-c3ccc(Cl)cc3)c(=O)c2=O)CC1	x	-3.1
N#C/C=C(\Nc1ccc(F)cc1F)c1ccccc1Cl	0.56	x
N#Cc1c(-c2cccs2)cc(-c2cccs2)nc1N	0.08	x
CC1CC(C)(C)NC(=S)N1CCCC(=O)N1CCN(c2ccccn2)CC1 (configuration not stated)	0.55	x
COC(=O)C1C(=O)C2=C(CC1C)NC(C)=C(C(=O)OC(C)C)C2c1cccc(Oc2ccccc2)c1 (configuration not stated)	-0.25	-0.12
CCOC(=O)Cc1nn(C)c(=O)c2ccccc12	-1.8	x
Cc1nc(N(C)C)cc(N2CCN(S(=O)(=O)c3cccc(Cl)c3)CC2)n1	-1	0.91
COC(=O)c1cc(NC(=O)c2csc3c2CCCC3)cc(C(=O)OC)c1	-0.87	-0.1
COc1ccc(Nc2nc(NC3CCCCC3)nc(N)c2[N+](=O)[O-])cc1	x	0.52
Cc1onc(-c2ccccc2)c1-c1nc(CSc2nc3ccccc3[nH]2)no1	-0.65	x
COc1ccc(C2CC(=O)N3CN(c4ccc(C)c(C)c4)CSC3=C2C#N)c(OC)c1 (configuration not stated)	3.7*	-1.4
Cn1c(N2CCN(C(=O)C3CC(=O)N(C4CCCCC4)C3)CC2)cc(=O)n(C)c1=O (configuration not stated)	x	1.3
Nc1ncc(Br)cc1S(=O)(=O)N1CCCCC1	0	0.29
Fc1ccc(-c2cn3c4ccccc4n(CCN4CCCC4)c3n2)cc1	-0.75	0.84
Carrying on.
SMILES	CDC25B-CDK2 inh	TAR Tat displ
CCOC(=O)/C(C#N)=C1\SCC(C)(O)N1c1c(F)cccc1F (configuration not stated)	-1.4	x
COC(=O)c1ccc(C2C(C#N)=C(N)OC3=C2C(=O)CC(C)(C)C3)cc1 (configuration not stated)	-1.9	x
COc1ccc(C2Oc3c(OC)cccc3C3CC(c4ccccc4O)=NN32)cc1OC (configuration not stated)	0.08	-0.74
Cc1cccc(-c2[nH]c(C(C)(C)C)nc2-c2ccc3nccnc3c2)n1	-0.55	x
CN(C)C(=O)c1ccc2c(c1)N(CC(=O)N1CCc3ccccc31)C(=O)C1CCCCN21 (configuration not stated)	x	0.91
CCOc1ccc(C2C(C#N)=C(C)NC3=C2C(=O)CC(c2ccc(Cl)cc2)C3)cc1OC (configuration not stated)	-1.1	-0.47
CC/C=C\C/C=C\C/C=C\C/C=C\C/C=C\CCCC(=O)O	x	-0.07&1.6
COc1ccc(OC)c(C2SCCN2S(=O)(=O)c2ccc(-c3ccccc3)cc2)c1 (configuration not stated)	-5.2	0.89
Cc1ccc(COc2ccccc2C2CC(=O)Nc3c2c(C)nn3-c2ccc3nnc(C)n3n2)cc1 (configuration not stated)	x	0.14
O=C(CSc1nnc2ccc3ccccc3n12)Nc1ccc(Cl)cc1	-1.9	x
Cc1nc(-c2ccc(S(=O)(=O)Nc3ccc(C(C)C)cc3)cc2)co1	x	-0.29
CCCCNC(=O)CN1C(=O)NC2NC(=O)NC21 (configuration not stated)	-1.4	1.8
Cc1ccccc1-c1nc2scc(CCNS(=O)(=O)c3ccc(Br)cc3)n2n1	x	0.42
CCSc1nc2c(c(=O)[nH]1)C(c1cccc(Br)c1)C(C(=O)OC(C)C)=C(C)N2 (configuration not stated)	-0.33	x
COCCN1C(=O)c2oc3ccccc3c(=O)c2C1c1ccc(OC)c(OC)c1 (configuration not stated)	-1.9	0.8
O=S(=O)(Nc1cccc(-c2cn3cccnc3n2)c1)c1ccc(Br)cc1	-0.25	x
O=C(CSc1nnc2c3c4c(sc3ncn12)CCCC4)Nc1cccc(F)c1	-4.1	-0.28
CCCCC(=O)Nc1nc2nc(C)c(Cl)c(=O)n2[nH]1	-1.2	1.6
COc1ccc(C2=NNc3nc4c(c(=O)[nH]c(=O)n4C)n3C2)cc1	-0.52	0.63
COc1ccc(C2CC(c3ccc(C)c(C)c3)Nc3nnnn32)cc1 (configuration not stated)	x	1.2
COc1ccc(N2CCN(c3nc(-c4ccc(OC)c(OC)c4)no3)CC2)cc1	x	0.09
C=CCN(CC=C)S(=O)(=O)c1ccc2nc(N)sc2c1	x	0.32
Cc1cc(C)c(C2=NON3N(C(=O)c4ccc(S(=O)(=O)N(C)C)cc4)c4ccccc4N23)c(C)c1	-1.1	2.8
COC(=O)c1cc(NS(=O)(=O)c2ccc(NCc3ccccc3)c([N+](=O)[O-])c2)cc(C(=O)OC)c1	-0.67	x
CN1C(=O)CSc2ccc(NC(=O)N3CCN(c4ccccc4)CC3)cc21	0.36	-1.8
(next part)
SMILES	CDC25B-CDK2 inh	TAR Tat displ
CC(C)SC(=O)c1scc(S(C)(=O)=O)c1Cl	-1.5	x
O=C(NCc1ccc2c(c1)OCO2)c1ccc(CS(=O)c2ccc(Br)cc2)o1 (configuration not stated)	-1.9	-0.86
CCOC(=O)C1CCN(S(=O)(=O)c2ccc3c(c2)NC(=O)C(C)C(=O)N3)CC1 (configuration not stated)	0.54	0.75
CCCN1C(=O)C(O)(CC(=O)c2c(C)n[nH]c2C)c2ccccc21 (configuration not stated)	-1.3	0.64
COC(=O)c1ccc(C2C(C(=O)OC3CCCCC3)=C(C)NC3=C2C(=O)CC(C)(C)C3)cc1 (configuration not stated)	-2.1	1.8
COc1ccc2nc(NC(=O)Nc3ccc(Cl)cc3)sc2c1	-0.06	-0.72
CCOc1ccc(Br)cc1CNCCSc1nnnn1C	-0.92	0.56
Cn1c(=O)c(=O)n(C)c2cc(S(=O)(=O)CCC(=O)Nc3ccc(F)cc3F)ccc21	0.15	0.64
COCc1nnc(NC(=O)c2ccc3c(c2)OCO3)s1	-1.6	-1.8
CCN(CC)C(=O)C1=CC(c2cccs2)=NS(=O)(=O)N1C	-1.8	2.5
CCOC(=O)C1CCN(c2ncnc3sc(C(=O)O)c(C)c23)CC1	x	16*
COc1ccc2cc(C(=O)c3cc4ccc(OC)cc4oc3=O)c(=O)oc2c1	-0.47	x
CC1(C)O[C@@H]2CC3C4C[C@H](F)C5=CC(=O)C=CC5(C)C4C(O)CC3(C)[C@]2(C(=O)CO)O1 (some centres not stated)	x	1.6
Cc1cc(NS(=O)(=O)c2cn(C)c(C)n2)ccc1Br	x	1.9
O=C(CSc1nnc(-c2cccnc2)o1)Nc1nc2ccccc2s1	-1	2.1
CCCS(=O)(=O)c1ncc(Cl)c(C(=O)Nc2sc3c(c2C(=O)OCC)CCCC3)n1	-0.43	1.9
O=S1(=O)C[C@H](NCCCc2ccccc2)[C@@H](S(=O)(=O)c2cccs2)C1	-1.4	-4.5
CCOc1ccc(-c2nc3n(n2)C(c2ccc(OC)cc2)C2=C(CCCC2=O)N3)cc1 (configuration not stated)	-3.5	0.85
COc1cn(CC(=O)Nc2ccc(Br)cc2)c(CSc2nccc(C)n2)cc1=O	x	0.89
CCCC12CN3CC(CCC)(CN(C1)C3c1cc(Br)ccc1OC)C2=O (configuration not stated)	-1.7	1
CCOC(=O)C1CCN(C(=O)Cn2cc3c(n2)CCC(C)C3)CC1 (configuration not stated)	0.28	0.72
COc1ccc(COC(=O)C2=C(C)NC3=C(C(=O)CCC3)C2c2coc3ccc(C)cc3c2=O)cc1 (configuration not stated)	-0.29	3.9
CC1=C(C(=O)OC(C)C)C(c2cccc(Cl)c2)C2=C(CCCC2=O)N1 (configuration not stated)	-1.9	1.3
c1csc(C2=NN3C(C2)c2ccccc2OC32CCCC2)c1 (configuration not stated)	-1.4	x
O=C(O)CSc1nc(-c2ccccc2)c(-c2ccccc2)[nH]1	-1.9	x
Carrying on.
SMILES	CDC25B-CDK2 inh	TAR Tat displ
CCc1sc(-c2c(C#N)c(N)nc3c2CCCCCC3)cc1[N+](=O)[O-]	-2.4	x
CC(C)(C)c1ccc(S(=O)(=O)c2c[nH]c3ccc(Cl)cc3c2=O)cc1	-1.9	-0.78
CC1=C(c2ccccc2)S(=O)(=O)NC1=NCCCN1CCN(c2cc(C)ccc2C)CC1	13*	-0.09
c1cncc(CSc2nc3ncccc3[nH]2)c1	x	-0.13
Cc1ccc2onc(CNC(=O)NC3CCCC(C)C3C)c2c1 (configuration not stated)	x	0.51
CCOC(=O)c1nnn(-c2nonc2N)c1CN(C)C1CCCCC1	-1.1	0.59
O=C(NC(=O)c1c(F)cccc1Cl)Nc1ncc(C(F)(F)F)cc1Cl	-3.1	x
CC(C)Oc1ccc(Cn2cnc3c(sc4nc5c(cc43)COC(C)(C)C5)c2=O)cc1	x	1
CC1CC(C)CN(S(=O)(=O)c2ccc3c(c2)oc(=O)n3CC(=O)Nc2nccs2)C1 (configuration not stated)	-0.8	-0.27
Cc1ccc(-c2noc(-c3nnn(-c4ccccc4F)c3C)n2)cc1	x	2.5
c1csc(C2Nc3ccccc3O2)c1 (configuration not stated)	-2.2	x
COC(=O)COc1ccc2c(=O)c(-c3ccc(Cl)cc3)coc2c1	-0.11	x
CC1=C(C(=O)OCC(F)(F)F)C(c2ccccc2)NC(=O)N1 (configuration not stated)	13	x
c1cc2c(cc1CN1CCC(N3CCCCC3)CC1)OCO2	1.1	x
COC(=O)C(C)N(C#N)c1nc(N(C)C)nc(N(C)C)n1 (configuration not stated)	-1.5	1.6
Cc1ccc2oc3c(c(=O)c2c1)C(c1ccc(F)cc1)N(c1ccccn1)C3=O (configuration not stated)	-1.3	2.2
CC1(C)CC(=O)c2c(nn(-c3ccccc3)c2N)C1	-0.51	x
N#CC(C(=O)c1cccs1)=C1SCCS1	-0.35	x
Clc1cccc(-c2noc(-c3ccsc3)n2)c1	-1.9	x
CN1C(C(=O)Nc2cnn(Cc3ccc(F)cc3)c2)=CC(c2ccco2)=NS1(=O)=O	-2.3	1.4
NCC(O)COc1c(Cl)cccc1Cl (configuration not stated)	-1.3	x
Cc1nc2cc3c(cc2s1)OCO3	-0.78	x
Cn1c(=O)oc2cc(S(=O)(=O)N3CCN(C(=O)C4CC(=O)N(c5ccccc5)C4)CC3)ccc21 (configuration not stated)	x	0.94
CCCc1cc(=O)oc2c(C)c(OCC(=O)OCC)ccc12	0.69	x
CCN1C(=O)c2cc(C(=O)N3CCC(N4CCCCC4)CC3)nn2CC1(C)C(=O)NC1CCCC1 (configuration not stated)	x	0.86
CCC(=O)N1c2ccc(S(=O)(=O)NCC(=O)NC3CCCC3)cc2CC1C (configuration not stated)	-1.9	x
CS(=O)(=O)N1CCN(C/C=C/c2ccccc2)CC1	-2.9	x
O=C(Nc1ccc(Br)cc1)Nc1nnc(N2CCCCC2)s1	-0.16	-0.98

Sorted by number of heavy atoms (low to high): some entries from above.
SMILES	CDC25B-CDK2 inh	TAR Tat displ
Cc1nc2cc3c(cc2s1)OCO3	-0.78	x
c1csc(C2Nc3ccccc3O2)c1 (configuration not stated)	-2.2	x
N#CC(C(=O)c1cccs1)=C1SCCS1	-0.35	x
Clc1cccc(-c2noc(-c3ccsc3)n2)c1	-1.9	x
CS(=O)(=O)N1CCN(C/C=C/c2ccccc2)CC1	-2.9	x
COC(=O)C(C)N(C#N)c1nc(N(C)C)nc(N(C)C)n1 (configuration not stated)	-1.5	1.6
O=C(Nc1ccc(Br)cc1)Nc1nnc(N2CCCCC2)s1	-0.16	-0.98
Cc1ccc2onc(CNC(=O)NC3CCCC(C)C3C)c2c1 (configuration not stated)	x	0.51
COC(=O)COc1ccc2c(=O)c(-c3ccc(Cl)cc3)coc2c1	-0.11	x
CC(C)(C)c1ccc(S(=O)(=O)c2c[nH]c3ccc(Cl)cc3c2=O)cc1	-1.9	-0.78
CCC(=O)N1c2ccc(S(=O)(=O)NCC(=O)NC3CCCC3)cc2CC1C (configuration not stated)	-1.9	x
Cc1ccc2oc3c(c(=O)c2c1)C(c1ccc(F)cc1)N(c1ccccn1)C3=O (configuration not stated)	-1.3	2.2
CC1CC(C)CN(S(=O)(=O)c2ccc3c(c2)oc(=O)n3CC(=O)Nc2nccs2)C1 (configuration not stated)	-0.8	-0.27
CC(C)Oc1ccc(Cn2cnc3c(sc4nc5c(cc43)COC(C)(C)C5)c2=O)cc1	x	1
CC1=C(c2ccccc2)S(=O)(=O)NC1=NCCCN1CCN(c2cc(C)ccc2C)CC1	13*	-0.09
Cn1c(=O)oc2cc(S(=O)(=O)N3CCN(C(=O)C4CC(=O)N(c5ccccc5)C4)CC3)ccc21 (configuration not stated)	x	0.94
CCN1C(=O)c2cc(C(=O)N3CCC(N4CCCCC4)CC3)nn2CC1(C)C(=O)NC1CCCC1 (configuration not stated)	x	0.86
